CBX7 AlphaScr – CBX7 chromodomain binding inhibitors, primary screen, biochemical, AlphaScreen. Chromobox protein homolog 7 (Homo sapiens), O95931. AlphaScreen His6-CBX7 / biotin-H3K27me3 peptide binding; hits give low values. normalised signal (fraction of DMSO) (no concentration beside the values). hit rate 1.1% among 66,000; in the data active = normalised signal below about 0.5;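 note: 100 nL library stock added to about 20 µL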
Target sequence (O95931 whole entry, looked up): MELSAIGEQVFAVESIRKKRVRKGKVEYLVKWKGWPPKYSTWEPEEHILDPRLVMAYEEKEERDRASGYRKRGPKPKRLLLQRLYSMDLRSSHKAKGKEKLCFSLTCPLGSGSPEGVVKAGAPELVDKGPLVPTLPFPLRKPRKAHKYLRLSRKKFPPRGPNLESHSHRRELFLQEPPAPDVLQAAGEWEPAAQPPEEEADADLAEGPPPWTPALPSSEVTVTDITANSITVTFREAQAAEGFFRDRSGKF
CBX7 AlphaScr z-score – second read-out of CBX7 AlphaScr, no call of its own (marks repeat the call); z-score; measured here: z-score of CBX7 signal; some inactives read as strong as hits; reference of the scale not given here;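 same signal on another scale; lower means less binding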
Numbers without * were called inactive. A portion of the library; the hit share may differ from the screen's.

Molecule | CBX7 AlphaScr | CBX7 AlphaScr z-score
O=C(NCCc1ccccc1)C1CCN(S(=O)(=O)c2cccc3nonc23)CC1 | 1.06 | 0.0777
O=c1[nH]c2ccc(Br)cc2c(-c2ccccc2)c1CN1CCOCC1 | 1.04 | 1.67
CCOC(=O)c1cc(-c2ccccc2)n(-c2cccc(C(=O)Nc3nccs3)c2)c1C | 0.944 | -1.01
CCOC(=O)c1c(NC(=O)c2cc(Cl)ccc2OC)sc2c1CCCC2 | 1.01 | 0.022
c1ccc(C2=Nc3ccccc3Nc3c2cnn3-c2ccccc2)cc1 | 0.887 | -0.492
Cc1ccc(C(=O)Nc2ccccc2-c2nc3ccccc3[nH]2)cc1C | 1.09 | 1.03
CCOCCCNC(=O)c1ccc2c(c1)ncn2-c1ccccc1OC | 0.989 | -0.0111
CCN1CCN(C(=O)c2c(-c3ccccc3Cl)noc2C)CC1 | 1.06 | 0.0756
COc1ccc(Cl)cc1C(=O)Nc1ccc2nc(N3CCC(C)CC3)cc(C)c2c1 | 1.41 | 4.47
COc1cccc(NC2c3ccccc3C(=O)N2Cc2ccccc2Cl)c1 (configuration not stated) | 0.939 | -0.0613
COc1ccc(C)cc1S(=O)(=O)NCCc1c(C)[nH]c2ccc(C)cc12 | 0.404* | -0.593*
CCOC(=O)c1cnc2c(C)c(Cl)ccc2c1Nc1ccc(O)cc1 | 0.847 | -0.351
COc1cccc(-c2nc(CS(=O)(=O)CC(=O)NCCN(C)C)c(C)o2)c1 | 1 | 0.0827
Cc1nccc2[nH]c(=O)c(C(=O)NCCCOC(C)C)cc12 | 1.21 | 1.23
CCN1C(=O)c2ccccc2Sc2ccc(C(=O)NCc3cccnc3)cc21 | 0.769 | -4.18
CC(C(=O)NC1CCCC1)C1Sc2ccccc2NC1=O (configuration not stated) | 1.01 | 0.224
Cc1cc(C)nc(Sc2nnc(C)c3ccccc23)n1 | 0.96 | -1.53
COc1cccc(NS(=O)(=O)c2ccc3[nH]cc(C(=O)NC4CCCCC4)c(=O)c3c2)c1 | 1.16 | 1.97
O=C(NCc1ccc(F)cc1)c1cc2c(s1)-c1ccccc1OC2 | 1.1 | 4.7
CCOC(=O)c1cnc2ccc(OCC)cc2c1Nc1ccc(OC)c(OC)c1 | 0.782 | -5.82
Cc1nc2ccc(S(=O)(=O)N(C)CC(=O)NCc3ccc(Cl)cc3)cc2s1 | 1.1 | 0.595
Cc1cccc(NC(=O)c2cnc(N3CCN(c4ncccn4)CC3)c3ccccc23)n1 | 1.11 | 2.97
CC(C)c1ccc(NC(=O)c2cnc3sccn3c2=O)cc1 | 1.03 | 0.236
Cc1cc(F)ccc1NC(=O)c1csc2c1CCCC2 | 1.05 | 2.1
Cc1ccc(Nc2nnc(-c3ccc(C)c(S(=O)(=O)N4CCN(C)CC4)c3)c3ccccc23)c(C)c1 | 0.831 | -0.19
CCOc1ccc(CCNC(=O)C2CCN(c3nn4c(=O)cc(C)nc4s3)CC2)cc1 | 1.11 | 1.01
Cc1ccc(Nc2nnc(-c3ccc(C)c(S(=O)(=O)NC(C)(C)CO)c3)c3ccccc23)cc1 | 0.795 | -2.31
O=C(Nc1c(F)cccc1F)c1cnc(N2CCN(c3ccccn3)CC2)c2ccccc12 | 1.01 | 0.0986
COc1ccc(N2C(=O)CC(N3CCC(C(=O)O)CC3)C2=O)cc1 (configuration not stated) | 1.04 | 0.914
COCCCNC(=O)C1CCCN(Cc2nc(-c3ccccc3F)oc2C)C1 (configuration not stated) | 0.972 | -0.185
O=C(CSc1nc(-c2ccc(Br)cc2)[nH]c1-c1ccccc1)NCC1CCCO1 (configuration not stated) | 0.937 | -1.55
O=C(c1ccc(Cn2c(=O)[nH]c3ccccc3c2=O)cc1)N1CCN(c2cccc(C(F)(F)F)c2)CC1 | 0.681 | -0.892
CCC1Oc2ccc(Cl)cc2N(CC(=O)NCCC2=CCCCC2)C1=O (configuration not stated) | 0.891 | -1.29
Cc1cc(Cl)ccc1OCC(=O)Nc1ccc(-c2nc3cc(C(C)C)ccc3o2)cc1 | 1.06 | 0.0805
COc1ccc(-c2nnc(NC(=O)c3ccc(S(=O)(=O)N4CC(C)OC(C)C4)cc3)o2)c(OC)c1 (configuration not stated) | 0.629 | -8.38
O=C(N1CCN(CCO)CC1)N1c2ccccc2C=Cc2ccccc21 | 0.884 | -1.25
CCC(=O)N1CCc2cc(S(=O)(=O)N(CC)CCN(C)C)ccc21 | 0.971 | -0.245
CCOC(=O)c1c(NC(=O)c2cccc(OC)c2)sc2c1CCCCC2 | 1.7 | 27.9
CCc1ccc(OCc2nnc(NC(=O)c3ccc(OC)cc3)s2)cc1 | 1.33 | 1.16
O=C1CCN(C(=O)c2ccc(Cl)cc2Cl)c2ccccc2N1 | 0.907 | -1.73
CC(C)(Oc1ccc(Cl)cc1)C(=O)Nc1nnc(-c2cccs2)s1 | 1.11 | 0.147
O=C(NCCCN1CCOCC1)C(=O)Nc1cccc(C(F)(F)F)c1 | 1.13 | 1.43
COc1ccc(C(C(=O)NC2CCCC2)N2CCOCC2)cc1 (configuration not stated) | 1.04 | 1.91
O=C(NCCCN1CCOCC1)C1CCCN(c2nnc(-n3cccc3)s2)C1 (configuration not stated) | 0.965 | -0.776
CCCC1CCC(c2ccc(-c3noc(-c4ccccn4)n3)cc2)CC1 (configuration not stated) | 1.28 | 0.366
Clc1ccc(COc2cccc(CNCc3cccnc3)c2)cc1 | 0.715 | -3.11
Cc1cc(C)c(Cc2c(C)nc3c(C(=O)O)cnn3c2C)c(C)c1 | 1.01 | 0.302
Cc1ccc(S(=O)(=O)C2(C(=O)N3CCN(c4ccccn4)CC3)CC2)cc1 | 0.904 | -4.55
c1ccc(-n2nnnc2-n2cnc3ccccc32)cc1 | 0.974 | -0.574
CCn1c(SCC(=O)Nc2ccc(OC)cc2OC)nnc1-c1c[nH]c2ccccc12 | 1.12 | 0.786
COC(=O)c1ccccc1NC1c2ccccc2C(=O)N1c1cccnc1 (configuration not stated) | 0.92 | -1.44
CCn1cc(C(=O)NCCCN2CCCC2=O)c(=O)c2ccc(C)nc21 | 1.01 | 0.119
COCCCNC(=O)c1ccc2c(c1)ncn2-c1ccc(OCc2ccccc2)cc1 | 0.936 | -1.56
Cc1ccc2nc(NS(=O)(=O)c3ccc(Cl)cc3)c(Nc3ccc(N4CCCC4)cc3)nc2c1 | 0.947 | -1.04
FC(F)(F)c1cc(-c2cccs2)nc(Nc2nc3ccccc3o2)n1 | 1.18 | 2.26
CCOC(=O)Cc1nnc(NC(=O)c2ccc(C)cc2)s1 | 1.12 | 2.04
COc1ccc(-n2nnc3c(=O)n(Cc4ccc(Cl)cc4)cnc32)cc1 | 0.932 | -1.3
CCOc1ccc2nc(N3CCCC(C(=O)Nc4cc(C)ccc4C)C3)sc2c1 (configuration not stated) | 1 | 0.108
CCOc1ccccc1Nc1nc2ccccc2nc1NS(=O)(=O)c1ccc(Cl)cc1 | 0.921 | -2.28
Cc1cccn2c(NC(=O)c3ccc(Br)cc3)c(-c3ccccc3)nc12 | 0.988 | -0.153

Some of the entries so far, as labelled records.
CCC1Oc2ccc(Cl)cc2N(CC(=O)NCCC2=CCCCC2)C1=O (configuration not stated)
  CBX7 AlphaScr: 0.891; CBX7 AlphaScr z-score: -1.29

Cc1cc(Cl)ccc1OCC(=O)Nc1ccc(-c2nc3cc(C(C)C)ccc3o2)cc1
  CBX7 AlphaScr: 1.06; CBX7 AlphaScr z-score: 0.0805

COc1ccc(-c2nnc(NC(=O)c3ccc(S(=O)(=O)N4CC(C)OC(C)C4)cc3)o2)c(OC)c1 (configuration not stated)
  CBX7 AlphaScr: 0.629; CBX7 AlphaScr z-score: -8.38

O=C(N1CCN(CCO)CC1)N1c2ccccc2C=Cc2ccccc21
  CBX7 AlphaScr: 0.884; CBX7 AlphaScr z-score: -1.25

Other entries.
Molecule | CBX7 AlphaScr | CBX7 AlphaScr z-score
CN1C(=O)CNC(=O)c2c1nc(N1CCOCC1)n2C | 0.963 | -1.08
CC(C)CCNc1ncc2c(n1)CC(c1ccccc1Cl)CC2=O (configuration not stated) | 1.17 | 1.87
COc1ccc(-c2cc3nc(C)c(CCC(=O)Nc4ccccc4OC)c(C)n3n2)c(OC)c1 | 0.997 | -0.0412
COC(=O)c1cc2sc(Cl)cc2n1CC(=O)Nc1ccc(C)c(F)c1 | 1.16 | 4.59
Cc1nc2ccc(S(=O)(=O)NC(C(=O)N3CC(C)CC(C)C3)C(C)C)cc2s1 (configuration not stated) | 1.02 | 0.296
CCOC(=O)Cn1nnc(-c2ccc(OCc3ccccc3F)cc2)n1 | 1.05 | 0.937
CCCN1CCN(C(=O)c2cnc(Nc3ccc(OC)cc3)c3ccccc23)CC1 | 1.04 | 0.689
O=C(O)C(Cc1ccccc1)Nc1ncnc2ccccc12 (configuration not stated) | 0.979 | -0.719
O=C(NC1CCCCC1)c1ccc2nc(N3CCOCC3)sc2c1 | 1 | -0.0126
Fc1cccc(Cl)c1Cc1noc(/C=C/c2ccccc2Cl)n1 | 1.07 | 0.0736
COc1ccc(CCNC(=O)CN2N=C(c3ccccc3)CCC2=O)cc1OC | 1.03 | 0.4
O=C(NC1CCCC1)C1c2ccccc2C(=O)N1c1cccc(C(F)(F)F)c1 (configuration not stated) | 0.887 | -1.34
CCn1c(SCC(=O)N2CCOCC2)nnc1-c1c[nH]c2ccccc12 | 0.854 | -2.53
COc1ccc(S(=O)(=O)NCCc2c(C)[nH]c3ccc(Br)cc23)cc1 | 0.872 | -6.63
O=C(Nc1sc2c(c1C(=O)NCc1ccccc1)CCCCC2)c1ccccc1F | 1.04 | 1.55
Cc1cccc(C)c1NC(=O)c1csc2c1CCCC2 | 1.02 | 0.842
Cc1ccc(C)c(Cc2c(C)nc3c(C(=O)NCc4ccccc4)cnn3c2C)c1 | 1.04 | 1.72
O=C(CN1C(=O)CSc2ncccc21)NCCC1=CCCCC1 | 1.08 | 3.23
CCCCc1nn(-c2ccccc2F)c2c1C(=O)CC(c1ccccc1)C2 (configuration not stated) | 1.02 | 0.212
CCCc1oc2cc(O)c(CC)cc2c(=O)c1-c1ccc2c(c1)OCCO2 | 1.26 | 4.38
CCN(CC)CCOc1nnc(-c2ccc(C)cc2)c2ccccc12 | 0.698 | -1.19
Cc1ccc(-c2cc(C(=O)NCCCN(C)C)c3ccccc3n2)cc1 | 1.14 | 3.25
COc1ccc(-n2nc3ccc(NC(=O)COc4ccc(Br)cc4)cc3n2)cc1 | 1.01 | 0.192
COc1cc2c(cc1OC)C(C(=O)Nc1ccc(F)cc1F)C(c1ccccc1F)N(C)C2=O (configuration not stated) | 1.26 | 3.28
CC(C)Sc1nnc(-c2c[nH]c3ccccc23)n1C | 0.901 | -0.949
Cc1nnc(Nc2cccc(C(F)(F)F)c2)c2ccccc12 | 0.999 | -0.00123
Cc1cccc(Cn2c(C3CC(=O)N(Cc4ccccc4)C3)nc3ccccc32)c1 (configuration not stated) | 0.851 | -1.06
Cc1cc2cc(CCNC(=O)COc3ccccc3)c(=O)[nH]c2cc1C | 1.01 | 0.262
COc1ccc(NC(=O)c2cc(S(=O)(=O)N3CCC(C)CC3)ccc2F)cc1 | 0.974 | -0.198
COc1ccc(CN2CCN(Cc3ccccc3OC)CC2)c(OC)c1 | 0.874 | -3.12
CCOc1ccccc1NS(=O)(=O)c1ccc2c(c1)CCN2C(=O)CCC(=O)O | 0.968 | -0.768
O=C(CN1C(=O)CSc2ccccc21)NCCCN1CCc2ccccc2C1 | 0.966 | -0.0343
Cc1ccc(-c2nn(CCC(=O)NCC3CCCO3)c(=O)c3ccccc23)cc1 (configuration not stated) | 0.998 | -0.0587
CCOc1ccc(OCC)c(NC(=O)C2CCCN(c3nc4ccc(OCC)cc4s3)C2)c1 (configuration not stated) | 0.903 | -2.63
Cc1cc(C)c(NC2=NC3CS(=O)(=O)CC3S2)c(C)c1 (configuration not stated) | 0.975 | -0.599
COc1ccc(Nc2nc(-c3ccccc3)c(CC(=O)O)s2)c(OC)c1 | 0.973 | -0.689
CCOC(=O)c1c(-c2ccc(F)cc2)csc1NC(=O)CCN1CCN(CC)CC1 | 0.974 | -0.513
CCOC(=O)c1cccc(NC(=O)c2c(OC)cccc2OC)c1 | 0.927 | -0.167
COc1ccc(CN2CCCC(C(=O)Nc3c(C)cccc3C)C2)cc1OC (configuration not stated) | 0.997 | -0.0663
COc1ccc(-c2nc3ccc(C)cn3c2Nc2ccc3c(c2)OCCO3)cc1 | 0.974 | -0.968
O=C(NCCCN1CCCC1)c1ccc2nc(N3CCOCC3)sc2c1 | 1.44 | 4.09
CCOc1ccc(C(=O)Nc2ccc3oc(-c4ccc(C(C)(C)C)cc4)nc3c2)cc1 | 0.717 | -1.14
COc1ccc(-c2nc3ccccc3c(C(=O)Nc3ccccc3C)c2C)cc1 | 0.778 | -1.69
COc1ccc(-c2cc(C(F)(F)F)nc(-n3ccnc3C)n2)cc1 | 1.06 | 1.59
O=C(O)c1ccc2c(c1)N(Cc1ccccc1)C(=O)c1ccccc1S2=O (configuration not stated) | 1.13 | 3.15
Cc1ccc(CNC(=O)c2cnn3c(C)c(Cc4cc(C)ccc4C)c(C)nc23)cc1 | 0.956 | -1.72
COc1ccc(CNS(=O)(=O)c2ccc3c(c2)CCC(=O)N3)cc1 | 0.968 | -0.774
CCn1cc(CNC(=O)c2cc(-c3ccc(C)c(C)c3)nc3ccccc23)cn1 | 1.03 | 0.803
COc1ccc(NC(=O)Cn2ccc3ccccc3c2=O)cc1OC | 1.16 | 1.44
Cc1nn(Cc2ccccc2Cl)c(C)c1NC(=O)c1cc(-c2ccco2)on1 | 0.93 | -1.78
CCCN(CCC)S(=O)(=O)c1ccc(C(=O)Nc2ccc(-c3nc4ccccc4[nH]3)cc2)cc1 | 1.25 | 1.93
COc1cc(OC)cc(-c2cc3nc(C)c(CCC(=O)NCc4ccc(C)cc4)c(C)n3n2)c1 | 0.987 | -0.239

Retrieved by compound from above:
Molecule | CBX7 AlphaScr | CBX7 AlphaScr z-score
CCCN(CCC)S(=O)(=O)c1ccc(C(=O)Nc2ccc(-c3nc4ccccc4[nH]3)cc2)cc1 | 1.25 | 1.93
CCOC(=O)c1c(-c2ccc(F)cc2)csc1NC(=O)CCN1CCN(CC)CC1 | 0.974 | -0.513
CCOc1ccc(C(=O)Nc2ccc3oc(-c4ccc(C(C)(C)C)cc4)nc3c2)cc1 | 0.717 | -1.14

Screens deposited in PubChem by several laboratories.
